CtBP-E1A inh: blocks the CtBP interaction with E1A. AlphaScreen GST-E1A/His-CtBP binding, 1536-well; active compounds read low; control for the full effect not named in the record. activity change, % (test concentration not listed). 340,000 tested, 0.49% active; in the data active means activity change below about -65%; inconclusive means about -30% to -65%; inactive means above about -30%; also: % is scaled to controls: 0 for no effect and ±100 for the full control effect
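AlphaScreen with 125 nM GST-E1A and 125 nM His-CtBP (5X stocks) in Tris pH 8.0, 300 mM NaCl, BSA, Tween 20, TCEP. Compounds preincubated 2 h at 37 deg C, then glutathione donor/nickel acceptor beads added for 1 h at 37 deg C in dark.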
TRPML1 ag: activates the human TRPML1 channel | 410,000 tested, 0.12% active | Q9GZU1 | activation, % (test concentration not listed) | TRPML1-expressing cells, Ca2+ dye fluorescence, FDSS; host cell line not named in the record; reference of the full effect not given here; in the data active = activation above about 50%; inconclusive = about 30% to 50%; inactive = below about 30%; also: 0% is about no effect; the text of the record puts the active cut at 80%
Target sequence (Q9GZU1 whole entry, looked up): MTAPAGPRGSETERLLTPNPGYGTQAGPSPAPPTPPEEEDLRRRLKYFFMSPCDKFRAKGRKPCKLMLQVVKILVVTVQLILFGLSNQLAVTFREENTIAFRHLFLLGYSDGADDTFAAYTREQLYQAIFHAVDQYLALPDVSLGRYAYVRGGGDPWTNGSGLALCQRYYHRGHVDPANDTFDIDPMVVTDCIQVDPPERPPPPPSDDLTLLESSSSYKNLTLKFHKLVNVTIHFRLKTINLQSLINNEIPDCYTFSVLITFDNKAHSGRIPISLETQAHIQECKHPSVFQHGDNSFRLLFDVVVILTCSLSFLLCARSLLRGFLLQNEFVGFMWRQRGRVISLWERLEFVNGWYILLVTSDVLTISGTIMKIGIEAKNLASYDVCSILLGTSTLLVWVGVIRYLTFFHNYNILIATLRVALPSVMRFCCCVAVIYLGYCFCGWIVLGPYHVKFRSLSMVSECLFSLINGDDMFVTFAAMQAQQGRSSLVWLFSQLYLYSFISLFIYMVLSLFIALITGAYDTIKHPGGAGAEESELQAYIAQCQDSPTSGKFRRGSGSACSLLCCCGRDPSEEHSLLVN
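Agonist activity was taken from a 110 s kinetic Ca2+ dye read on the FDSS after pinning compounds onto TRPML1-DL cells. The cells were seeded at 1,500/well with Tet inducer, incubated about 16 h, then dye-loaded at room temperature.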
PINK1 modulator: changes PINK1 expression | PINK1 immunofluorescence, high-content cytometry, 24 h | 410,000 tested, 0.2% active | AID 624263 | Potency, µM (titrated, usually from 76.6 µM), without a hit: at the top dose activation (PINK1 increase), actives largely listed as activators; active = well fitted activation curve with a large enough effect; inconclusive = small, poorly fitted or top-dose-only effect; inactive = flat fitted curve, though single readings scatter; cell line not stated here;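 also: potency is read from the fitted curve at half-maximal effect; % of control where 0% means no effect; nearly all actives have a fitted effect of over 65% in size; a mitochondrial uncoupler was the plate control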
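PINK1 protein level read as immunofluorescence by microplate cytometer in a fixed, stained stable cell line after 24 h exposure to five compound concentrations, with CCCP as control.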
Six1-Eya2 inh: inhibitors of human Six1/Eya2 interaction | AlphaScreen GST-Six1/His-Eya2 binding, biochemical; active compounds read low; control for the full effect not named in the record | activity change, % (concentration not given with the values) | 360,000 tested, 0.56% active; in the data active = activity change below about -65%; inconclusive = about -30% to -65%; inactive = above about -30%; also: % is scaled to controls: 0 for no effect and ±100 for the full control effect
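GST-Six1 + His-Eya2 (5X stock: 250/500 nM); Tris pH 8.0, 300 mM NaCl, 0.05% BSA, 0.02% Tween 20; GSH donor/Ni acceptor beads; 1 h 37 °C dark; AlphaScreen readout.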
D2 agonist: activates the human D2 dopamine receptor; 360,000 tested, 0.084% active; DiscoveRx PathHunter D2 beta-arrestin, luminescence, 90 min; 100% = 57 uM dopamine signal; AID 624465; activation, % (concentration not given with the values); in the data active = activation above about 40%; inconclusive = about 15% to 40%; inactive = below about 15%; also: compound concentration not given in the record; the text of the record calls up to 30% inactive
Target sequence (P14416 whole entry, looked up): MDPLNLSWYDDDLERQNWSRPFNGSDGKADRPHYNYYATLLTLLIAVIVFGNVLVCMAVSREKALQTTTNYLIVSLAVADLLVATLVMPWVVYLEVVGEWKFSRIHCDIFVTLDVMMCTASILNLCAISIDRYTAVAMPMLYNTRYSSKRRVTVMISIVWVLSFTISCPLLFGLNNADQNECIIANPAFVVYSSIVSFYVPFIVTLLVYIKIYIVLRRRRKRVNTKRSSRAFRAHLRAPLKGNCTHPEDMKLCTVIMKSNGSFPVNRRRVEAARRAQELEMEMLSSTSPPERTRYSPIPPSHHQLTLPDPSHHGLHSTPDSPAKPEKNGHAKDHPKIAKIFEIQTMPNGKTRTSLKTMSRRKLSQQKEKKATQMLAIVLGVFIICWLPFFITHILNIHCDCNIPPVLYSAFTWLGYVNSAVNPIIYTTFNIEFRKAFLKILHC
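DiscoveRx PathHunter D2 beta-arrestin cells (2,100/well) attached overnight, then compound-stimulated 90 min at 37 C in HBSS/10 mM HEPES/0.1% Tween-20 buffer; beta-galactosidase complementation read by luminescence after 1 h at ambient temperature. Dopamine 57 uM final (EC100) as control.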
D2 potentiator: potentiates the human D2 dopamine receptor allosterically; P14416; DiscoveRx D2 beta-arrestin cells, luminescence, 90 min; 100% = 57 uM dopamine signal; potentiation, % (no concentration beside the values); 360,000 tested, 0.23% active; active = potentiation of 50% or more; inconclusive = 30% to 50%; inactive = 30% or less;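 also: compound concentration not given in the record; tested on top of an EC20 dose of dopamine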
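PathHunter D2 cells, attached overnight at 37 deg C, received compound in DMSO plus dopamine at EC20 (50 nM final) for 90 min at 37 deg C. Beta-arrestin recruitment was read as luminescence after 1 h with detection reagent at ambient temperature.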
* marks the source's active call; other numbers are inactive results; u = inconclusive; x = not tested or not shown; & = joins results of further samples; [ ] = another dose, or the depositor's remark. The order is random; overall some 1.3% were active at least once.

Every second line gives: CtBP-E1A inh, TRPML1 ag, PINK1 modulator, Six1-Eya2 inh, D2 agonist, D2 potentiator
COc1ccc(S(=O)(=O)N2CCOC2CNC(=O)C(=O)NCc2ccccn2)cc1OC (configuration not stated)
→ 2, -0.5, -1.2%, 0, -0.3, 3
COC(=O)[C@@H]1C[C@@]2(O)[C@H](O)[C@H](O)[C@H](O)C[C@H]2N1Cc1cc(OC)cc(OC)c1
→ 2, 1.0, -0.3%, 9, -4.4, -9
Cc1sc2nc(C3CC3)nc(NCCNS(=O)(=O)c3ccccc3)c2c1C
→ 5, 2.2, 1.2%[38.3 µM], -17, 1.7, -19
CCc1[nH]nc(C(=O)N2CCCC(N3CCN(c4ccccc4C)CC3)C2)c1C (configuration not stated)
→ 4, 0.7, 1.1%, -3, -4.9, -50
O=C(CN(C(=O)Cn1nnc(-c2cccs2)n1)c1ccc2c(c1)OCCO2)NCC1CCCO1 (configuration not stated)
→ 2, 0.3, -0.3%, 19, -3.6, -47
COc1ccc(/C=C2\SC(=S)N(CCC(=O)NC3=NCCS3)C2=O)cc1OC
→ -7, 0.1, 8.4%, 4, 0.4, 5
Cc1ccc(NC(=O)C(c2ccccc2)c2ccccc2)nc1
→ x, x, 1.9%, 7, -1.0, 2
CCOC(=O)N/N=C/c1ccc(N2CCOCC2)s1
→ 13, 0.5, -1.3%, 10, 0.2, -14
COc1ccc(CCNC(=O)CC(C)S(=O)(=O)c2ccc3c(c2)NC(=O)CO3)cc1OC (configuration not stated)
→ 1, -0.3, 0.2%, -2, -2.3, -5
CN(C)C(=O)COc1ccc(Br)cc1
→ 18, 0.2, 3.9%, -1, -6.0, -21
COc1ccccc1CCNC(=O)C(=O)NCC1OCCN1S(=O)(=O)c1ccc(F)cc1 (configuration not stated)
→ 10, -0.5, -0.6%, 1, 5.9, -16
COc1ccc(C(=O)N2CCN(c3ccc(C)c(C)c3)CC2)cc1OC
→ -5, 0.2, 0.1%, -12, 7.1, 0
COc1ccc2nc(Nc3ccccc3OC)sc2c1
→ -4, 3.1, 1.5%, -9, -2.9, -5
Cc1nc([N+](=O)[O-])cn1CC(O)c1ccc(F)cc1 (configuration not stated)
→ 13, 0.8, 2.2%, 12, -0.7, -9
CN(CC(=O)NCc1ccncc1)S(=O)(=O)c1ccc(F)cc1
→ 40, 0.3, x, 19, -1.1, -6
COc1ccc2nc(SCC(=O)Nc3ccc4c(c3)OCCO4)[nH]c2c1
→ 0, 0.7, 0.1%, 5, -3.3, -25
CNC(=O)c1ccc(OCc2ccccc2)c(OC)c1
→ 5, -0.8, 1.6%, 3, -0.8, 2
CC1(c2ccc3c(c2)OCO3)NC(=O)N(CC(=O)Nc2ccccc2[N+](=O)[O-])C1=O (configuration not stated)
→ -20, 0.0, 0.3%, 3, 2.1, -7
O=C(CN1CCN(S(=O)(=O)c2ccc(F)cc2)CC1)Nc1ccccc1C(=O)NC1CC1
→ 4, -0.5, -1.4%, -6, -8.8, 9
Cc1ccc(NC(=S)NC(=O)c2cncc(Br)c2)c(C)c1
→ x, 0.9, 1.9%, 7, -5.6, -16
S=c1[nH]nc(Cn2c(-c3ccccn3)nc3ccccc32)n1-c1ccc2c(c1)OCCO2
→ 0, 0.2, 2.3%, 2, -1.0, -16
COc1ccc(CCNC(=O)c2cc(C3CC3)nc3c2cnn3C(C)C)cc1
→ 1, 2.4, 0.1%, -5, 1.9, 1
CCn1c(C)cc(/C=C2/SC(=O)N(CC(=O)N3CCCC3)C2=O)c1C
→ -12, 0.1, 3.4%, 1, 0.5, -4
NC(=O)C[C@H]1NC(=O)[C@H](CCC(=O)O)NC(=O)c2cc([N+](=O)[O-])cc(I)c2NCCC[C@@H](C(N)=O)NC1=O
→ 1, -0.5, 1.8%, -4, -2.0, -12
O=C(Oc1ccc(/C=N/NC(=O)c2ccccn2)cc1)c1ccc(Br)cc1
→ 6, 0.4, -0.7%, -22, -1.4, -24
CCOC(=O)c1ccc(NC(=O)C(CC)(CC)C(=O)OCC)cc1
→ -4, 3.3, 1.3%, 7, 0.2, -15
CC(=O)c1ccc(N2CCN(CC3CCCCC3)CC2)cc1
→ 0, -0.1, 2.6%, 0, -2.0, -29
Cc1cnc(C(=O)OCC(=O)N2c3ccccc3NC(=O)C2(C)C)cn1
→ 5, 2.0, -4.1%, -2, -4.1, -7
CN1OC[C@@H]2CN(C(=O)CCc3ccccc3)[C@H](c3cccc(N4CCOCC4)c3)C[C@@H]21
→ 6, 0.9, -2.0%, 2, -2.5, -3
CNC(=O)NC(=O)CSc1ccc(NC(C)=O)cc1
→ 2, -0.1, 0.4%, 0, -0.6, -19
CC(=O)c1sc(NCc2ccccc2)nc1C
→ -4, -0.4, 0.9%, 9, -3.3, -7
O=C(NCCNC(=O)c1ccc(Cl)cc1Cl)c1cnccn1
→ 3, 0.6, -0.1%, 13, -2.3, -7
CC(C)C(NC(=O)c1ccc2c(c1)OCCO2)c1nc2ccccc2[nH]1 (configuration not stated)
→ -2, 0.2, 9.1%, 2, -2.5, -18
CCCCOC(=O)Nc1nnc(Cc2ccc(Cl)cc2)s1
→ -13, 1.3, 4.1%, 5, 1.8, -10
Cc1cc2nc(CS)[nH]c2cc1C
→ x, 0.0, 0.5%, 2, -3.2, -22
CC(C)[C@H](NC(=O)N1c2ccccc2NC(=O)[C@@H]1C(C)C)C(=O)N1CCC[C@H]1C(=O)O
→ 7, x, -0.6%, 6, -5.7, -29
CC(=O)O[C@H]1C(=O)[C@@]2(C)[C@H]([C@H](OC(=O)c3ccccc3)[C@]3(O)C[C@H](OC(=O)[C@H](O)C(NC(=O)c4ccccc4)c4ccccc4)C(C)=C1C3(C)C)[C@]1(OC(C)=O)CO[C@@H]1C[C@@H]2O (some centres not stated)
→ -3, -0.4, 6.3%, -5, 1.4, -9
O=C(Nc1nnc(S(=O)(=O)N2CCCCCC2)s1)c1ccc(Cl)cc1
→ -1, -0.2&0.7, 0.7%&0.9%, 9, -0.7, -4
CCOC(=O)c1c(NCCN(C)C)c2ccccc2[nH]c1=O
→ 0, x, -0.1%, -13, -4.6, -35
Cc1ccc(SCCC(=O)N2CCCC2)cc1
→ 8, -0.6, 4.0%[38.3 µM], -1, -1.5, -1
O=S1(=O)CCOC[C@H](c2ccccc2)N1Cc1cccc(F)c1
→ 3, -0.2&-0.8, 0.9%, 1, 1.3, -5
Cc1cccc(NC2=NC3(CCCCC3)N=C(N)N2)c1
→ -8, 0.1, 4.7%, -5, -1.4, -19
CCOC(=O)c1cc2c(=O)n3ccccc3nc2n(C(C)C)c1=NC(=O)c1ccncc1
→ -8, 0.3, -1.0%, -9, -0.4, 0
CC(C(=O)Nc1ccc(OCc2ccccc2)cc1)N1CCCC1 (configuration not stated)
→ -2, 0.6, 1.5%, -3, 2.9, 1
Cc1ccc(S(=O)(=O)NN2C(=O)/C(=C/c3cccs3)SC2=S)cc1
→ x, 1.5, 1.9%, -5, -16, -4
COc1ccc(C(=O)Nc2cc3c(cc2OC)CCCC3)cc1Br
→ 7, -0.4, 2.8%, 4, -1.9, 25
O=C(Nc1cccc(Cl)c1)c1ccc2c(=O)n3c(nc2c1)CCCCC3
→ -7, 1.2, 1.1%, -18, -2.1, 2
CCC(C)[C@H](NC(=O)N1CC(=O)Nc2ccccc21)C(=O)N[C@H](Cc1ccccc1)C(=O)O (some centres not stated)
→ 3, x, -0.3%, 0, -5.5, -34
O=C(COc1ccccc1)Nc1nc(-c2ccncc2)cs1
→ -24, 0.4, 2.9%, 4, 1.5, -4
COCc1[nH][nH]c(=O)c1/C=N/N1CCOCC1
→ 9, 0.2, -0.6%, 7, -3.6, -1
CCOC(=O)c1[nH]c2ccccc2c1NC(=O)CCN1CC(C)OC(C)C1 (configuration not stated)
→ -4, 1.7, -1.1%, 7, 0.5, -17
O=C(C1=C[C@@H](c2ccccc2)C[C@@H](OCCCCO)O1)N1CCOCC1
→ x, -0.1, 0.4%, 6, -2.7, 0
O=C(Nc1ccc(S(=O)(=O)Nc2nccs2)cc1)c1nn(-c2ccc(F)cc2)ccc1=O
→ -14, 0.1, -1.1%, -23, 0.5, -13
CCOC(=O)N1CCC(N2Cc3cccc(C(=O)NCc4ccccc4OC)c3C2=O)CC1
→ -2, -0.7, 0.1%, -6, -0.6, -16
Cc1cc(C(=O)O)ccc1N=Cc1c(O)ccc2ccccc12
→ 12, 0.0, -1.1%, 2, 4.9, u
CC(C)N(Cc1cn(C)nc1-c1cccc(Cl)c1)Cc1nccn1C
→ -6, -0.7, -1.1%, -2, 0.3, -7
CCOc1ccc(NC(=O)NCc2ccc3c(c2)OCO3)cc1
→ 5, 1.2, 4.4%, 1, 0.6, -5
COc1cccc(NC(=O)c2cc(CN3C(=O)c4ccccc4C3=O)ccc2OC)c1
→ -10, -0.3, 5.9%, -11, -6.1, 3
COc1cc(OC)c(NC(=O)C2CCCN2C(=O)OCc2ccccc2)cc1Cl (configuration not stated)
→ 1, -0.8, 0.5%, 1, 2.0, -2
COC(=O)c1ccn(C(=O)c2ccc(Cl)cc2)n1
→ 3, 0.2, 4.9%[38.3 µM], 5, -1.8, 0

Further records:
Every second line gives: CtBP-E1A inh, TRPML1 ag, PINK1 modulator, Six1-Eya2 inh, D2 agonist, D2 potentiator
COc1ccc(S(=O)(=O)N2CCC(C(=O)N3CCc4ccccc4C3)CC2)cc1
→ 0, 1.5, -1.5%, 0, -6.2, -4
CCN(CC)CCn1c(NC(=O)c2ccc(C)cc2)nc2ccccc21
→ -1, 0.5, 3.8%, -8, -2.0, -31
COc1ccc(N2CCN(c3cc(=O)n(Cc4ccc(F)cc4)c(=O)[nH]3)CC2)cc1
→ -4, -0.6, 10%, 0, -0.2, -7
CN(C)c1ccc(/C=N/NC(N)=S)cc1[N+](=O)[O-]
→ 5, 0.6, -3.4%, -6, -3.3, -8
CCCn1c(SCC(=O)NC2CCCCC2)nnc1-c1ccncc1
→ -2, -0.1, -0.8%, 7, -1.2, 3
COC(=O)c1[nH]c2ccccc2c1NC(=O)C(C)N1CCOCC1 (configuration not stated)
→ 3, 4.4, -0.1%, 5, -3.4, -1
COC1=CC(=O)OC(c2ccco2)C1 (configuration not stated)
→ 5, -0.1, 1.6%, 3, -0.3, -4

Compound profiles, from the list above. Order of values: CtBP-E1A inh, TRPML1 ag, PINK1 modulator, Six1-Eya2 inh, D2 agonist, D2 potentiator
COC1=CC(=O)OC(c2ccco2)C1 (configuration not stated) in the list: 5, -0.1, 1.6%, 3, -0.3, -4
COC(=O)c1[nH]c2ccccc2c1NC(=O)C(C)N1CCOCC1 (configuration not stated) in the list: 3, 4.4, -0.1%, 5, -3.4, -1

Sorted by value in CtBP-E1A inh (ascending): three from the list above
Molecule | CtBP-E1A inh | PINK1 modulator | Six1-Eya2 inh | D2 agonist | D2 potentiator
CC(=O)c1sc(NCc2ccccc2)nc1C | -4 | 0.9% | 9 | -3.3 | -7
COc1ccc(CCNC(=O)CC(C)S(=O)(=O)c2ccc3c(c2)NC(=O)CO3)cc1OC (configuration not stated) | 1 | 0.2% | -2 | -2.3 | -5
CN(CC(=O)NCc1ccncc1)S(=O)(=O)c1ccc(F)cc1 | 40 | x | 19 | -1.1 | -6

Bioassay records from PubChem BioAssay.
